Screening results deposited in PubChem by several laboratories.
RanGTP-Imp inh: inhibitors of RanGTP-importin-beta interaction, primary screen, biochemical, FRET, CFP-Ran, YFP-importin-beta, homogeneous; cell-free CFP-Ran/YFP-importin-beta FRET ratio; inhibition, % (no concentration beside the values); 300,000 compounds, 1.1% hits;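 active = most replicates above 15%; inconclusive = exactly half above 15%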;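 note: 0% = DMSO wells and 100% = Ran loaded with GDP instead of GTP; wells of about 40 µL received 100 nL stock; the first replicate is given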
ALR inh: human ALR oxidase inhibition via reduced H2O2; P55789; purified ALR, DTT oxidation, H2O2 HRP-luminol luminescence; inhibition, % (test concentration not listed); 290,000 compounds, 3.8% hits; AID 485317;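 active = mean and each replicate at 75% or more; inconclusive = only one of the two met; inactive = neither met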;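 note: stock transfer was 7.5 nL into about 7.5 µL; 0% = neutral wells and 100% = wells with inactivated enzyme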
Target sequence (P55789 whole entry, looked up): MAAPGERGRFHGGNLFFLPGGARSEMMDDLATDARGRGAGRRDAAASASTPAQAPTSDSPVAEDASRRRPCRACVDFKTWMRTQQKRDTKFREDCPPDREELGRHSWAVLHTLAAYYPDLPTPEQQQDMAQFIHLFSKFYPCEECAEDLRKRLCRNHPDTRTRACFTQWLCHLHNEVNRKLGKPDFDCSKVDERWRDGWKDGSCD
B2AR ag: agonists of human beta-2 adrenergic receptor inducing internalization | Am2.2-beta2AR cells, FAP receptor internalization, flow cytometry; reference of the scale not given here | response, % (test concentration not listed) | 340,000 compounds, 0.43% hits | P07550;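 active = response above a set limit, near 3 SD of response in nonfluorescent compounds, cut at about 42% in these data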;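 note: stock transfer was 100 nL into about 11 µL; a reference agonist was the positive control; negative values mostly stem from fluorescent compounds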
Target sequence (P07550 whole entry, looked up): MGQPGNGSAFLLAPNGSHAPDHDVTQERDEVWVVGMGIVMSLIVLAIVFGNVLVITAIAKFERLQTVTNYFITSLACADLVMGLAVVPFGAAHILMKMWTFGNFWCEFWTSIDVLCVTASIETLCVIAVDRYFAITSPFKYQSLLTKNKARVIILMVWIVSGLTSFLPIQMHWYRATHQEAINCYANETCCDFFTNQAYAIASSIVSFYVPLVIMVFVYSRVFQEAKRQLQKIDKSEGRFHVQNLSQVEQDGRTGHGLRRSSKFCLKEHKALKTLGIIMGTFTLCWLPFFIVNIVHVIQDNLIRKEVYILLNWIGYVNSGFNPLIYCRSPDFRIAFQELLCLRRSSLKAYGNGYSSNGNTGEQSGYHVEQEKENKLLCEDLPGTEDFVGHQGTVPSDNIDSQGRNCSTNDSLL
HNF4A DNA FP: change in binding of human HNF4 alpha to DNA | HNF4a-FITC DNA binding, fluorescence polarization, 1 h | activity change, % at 10 µM | P41235 | 360,000 compounds, 0.3% hits | AID 1224865; in the data active = activity change above about 30%, passing the limit was not always enough;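 note: controls were the assay level and a saturating level of protein; the project sought stronger binding though the title names inhibitors; some compounds called inactive have numbers as strong as hits; positive values seem to mean higher polarization but the record does not say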
Target sequence (P41235 whole entry, looked up): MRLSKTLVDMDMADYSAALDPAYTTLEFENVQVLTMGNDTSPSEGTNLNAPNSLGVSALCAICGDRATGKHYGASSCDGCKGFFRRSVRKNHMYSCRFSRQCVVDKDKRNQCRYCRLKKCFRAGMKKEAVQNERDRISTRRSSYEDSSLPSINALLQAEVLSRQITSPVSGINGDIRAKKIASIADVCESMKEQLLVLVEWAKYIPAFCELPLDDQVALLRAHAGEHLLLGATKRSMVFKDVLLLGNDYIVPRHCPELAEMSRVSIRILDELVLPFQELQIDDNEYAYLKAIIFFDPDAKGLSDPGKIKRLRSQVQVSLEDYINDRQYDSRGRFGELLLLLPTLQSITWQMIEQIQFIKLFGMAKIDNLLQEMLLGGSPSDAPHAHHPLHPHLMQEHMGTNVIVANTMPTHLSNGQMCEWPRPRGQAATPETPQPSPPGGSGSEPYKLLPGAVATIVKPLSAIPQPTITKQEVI
Vif TR-FRET: HIV-1 Vif–A3G interaction blockers – biochemical, TR-FRET, GST-Vif 1-94, biotin-A3G peptide, dose response retest, primary screen (AID 1117319); 260,000 compounds, 0.57% hits; one-dose inhibition, %; IC50 in µM for titrated hits; TR-FRET GST-Vif / biotin-A3G peptide binding; higher % means a stronger effect; test concentration not given here; strong numbers were not always called active;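 active = above the screen mean plus three standard deviations and confirmed in dose response; inconclusive = results disagree or hit not tested in dose response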;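 note: Vif residues 1-94 fused to GST binding biotinylated APOBEC3G peptide 110-148; 0% = full assay without inhibitor and 100% = GST in place of GST-Vif; retest series ran down from 100 µM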
Calb FLC: C. albicans growth modulation with fluconazole. C. albicans CaCi-2 (fluconazole-resistant clinical isolate) + fluconazole, Alamar Blue growth, 48 h. growth inhibition, % (test concentration not listed). 300,000 compounds, 0.57% hits;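 active = most replicates above 75%; inconclusive = exactly half above 75%; inactive = most below 75%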;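 note: all wells also contain fluconazole at 8 µg/ml as a sub-toxic cotreatment; 0% = median of DMSO wells and 100% = median of geldanamycin control wells; wells of about 8 µL received 7.5 nL stock; the first replicate is given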
LANA-H2B inh: blocks KSHV LANA binding to histone H2A/H2B. Q9QR71. cell-free LANA-H2A/H2B peptide, fluorescence polarization. inhibition, % (test concentration not listed). 320,000 compounds, 0.6% hits. AID 2629; in the data active = inhibition mostly above about 10%, no sharp cut-off; inactive = mostly below about 6.7%;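 note: stock transfer was 7.5 nL into about 10 µL; 0% = median of vehicle wells and 100% = median of positive control wells; one replicate is shown; the record names a cut of 25% in any replicate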
Numbers without * were called inactive; ? = inconclusive; . = not tested or not shown. Rows are unselected; overall some 6.3% were active at least once.

SMILES	RanGTP-Imp inh	ALR inh	B2AR ag	HNF4A DNA FP	Vif TR-FRET	Calb FLC	LANA-H2B inh
O=S(=O)(NCc1csc(-c2cccnc2)n1)c1cccs1	2.1	-3.1	-10.7	-1.8	0.1%	0.5	2.2
COc1ccc(Cn2nnnc2C(c2cc3cccc(C)c3[nH]c2=O)N2CCOCC2)cc1 (stereo not given)	2.1	-4.2	5.5	2.7	2.5%	9.1	-4.5
CC1=C(C(=O)OC(C)C)C(c2ccccc2)NC(=S)N1C (stereo not given)	-2.5	3.7	-7.5	0.4	-2.0%	-1.2	-1.9
CCc1nnc(NC(=O)C2c3ccccc3Oc3ccccc32)s1	4.5	2.7	4.7	2.7	-1.3%	-7.1	-5.5
CCn1nnnc1SCC(=O)c1ccc(C)cc1C	0.2	16.6	-2.5	-0.1	.	1.7	2.0
Cc1ccc2c([N+](=O)[O-])c(C)ccc2n1	7.0	.	-12.3	-2.2	-8.0%	5.0	1.5
COc1ccc(N2C(=O)c3cccc4cc(Br)cc(c34)C2=O)cc1	.	-8.1	-18.6	7.5	-1.8%	.	0.2
CC1CCCCN1CCNC(=O)Cn1nc(-c2ccccc2)ccc1=O (stereo not given)	-0.7	.	-3.7	1.7	9.6%	-10.2	0.5
Cc1nc(C(=O)NC2CCCCC2)sc1C1(C)CC(c2cccc([N+](=O)[O-])c2)=NO1 (stereo not given)	-2.2	.	1.5	-1.6	-11.6%	-17.6	-0.7
Cc1c(Cl)cccc1NC(=O)COC(=O)CCc1nc2ccccc2n1-c1ccccc1	0.3	.	-2.8	1.3	-7.7%	4.0	.
O=C(COC(=O)COc1ccccc1)Nc1cccc([N+](=O)[O-])c1	1.5	58.1	-2.8	1.7	8.2%	-3.9	3.3
CCN(C(=O)c1ccc(S(=O)(=O)N2CCOCC2)cc1)C1CCS(=O)(=O)C1 (stereo not given)	0.6	.	4.1	2.2	-3.0%	13.3	.
COc1cc(OC)c(NC(=O)Cc2cccs2)cc1Cl	5.6	-9.5	-8.6	2.5	.	36.9	-2.4
COc1ccc(NC(=O)c2ccc(-c3ccccc3)cc2)cc1NS(=O)(=O)c1ccc(F)cc1	2.1	1.2	4.3	1.2	.	-6.7	-5.8
O=C(CCn1c(=O)oc2ccccc21)N1CCN(c2ccc(F)cc2)CC1	-0.3	97.4*	1.2	2.0	14.8%	2.5	1.2
Cc1ccc(C(=O)NCCSCc2ccc(Cl)cc2Cl)cc1[N+](=O)[O-]	-0.7	88.6*	-4.7	-1.8	21.5%	?	4.3
Cc1ccc(-c2n[nH]c(=S)n2/N=C\c2ccco2)cc1	3.0	55.4	10.7	3.2	.	1.9	-1.0
O=C(COC(=O)c1ccc(F)cc1F)NCCNC(=O)COC(=O)c1ccc(F)cc1F	-0.8	0.8	2.1	2.2	.	22.1	-1.8
C=CCOc1c2ccc(C(=O)NCCc3ccc(C)cc3)cc2nn1C	5.2	-2.1	-3.1	-2.8	15.2%	-5.8	0.1
Cc1cc2ncn(C3CC(=O)N(Cc4ccccc4)C3=O)c2cc1C (stereo not given)	0.4	-13.1	-5.0	-1.4	-2.4%	13.2	2.8
COc1ccccc1N1C(=NC(=O)CCc2ccccc2)SC2CS(=O)(=O)CC21 (stereo not given)	3.5	-3.0	-11.0	5.3	.	-1.1	0.6
COc1ccc(/C=N/NC(=O)c2ccncc2)cc1Cn1nc([N+](=O)[O-])c(Br)c1C	-1.4	-1.6	5.8	-1.5	-2.1%	-20.7	0.9
COc1ccccc1Oc1ccc(NC(=O)c2ccc(Cl)cc2)cc1	-2.3	0.7	7.1	0.9	-8.1%	-6.3	-10.1
Cc1cc([N+](=O)[O-])ccc1NC(=O)Nc1ccccc1F	4.0	.	0.4	3.4	31.4%	-9.8	-1.2
CC1CCCN(C(=O)C2CCN(S(=O)(=O)c3cccc4cccnc34)CC2)C1 (stereo not given)	-2.5	11.9	9.7	0.9	-3.9%	-1.3	0.8
CN1CCN(C(=O)CN2C(=O)COc3ccc(S(=O)(=O)N4CCOCC4)cc32)CC1	-1.0	-25.7	0.1	-0.6	6.8%	8.9	.
CC(=O)Nc1ccc(SCC(=O)c2cc(C)n(C)c2C)cc1	-2.6	98.9*	-8.2	0.2	6.6%	4.2	-1.4
CCCNC(=O)NC(=O)COC(=O)c1cccc(NS(=O)(=O)c2ccc(F)c(F)c2)c1	-1.3	-0.5	-7.4	-0.9	23.3%	2.1	0.0
COc1ccc(Nc2ncc(F)c(N3CCOCC3)n2)cc1	-1.8	.	11.0	2.4	98.2%	18.2	2.3
CCC(C)NC(=O)CCc1nc2ccccc2n1-c1ccccc1 (stereo not given)	-2.5	-1.3	-20.6	-0.7	.	-6.1	4.7
COCCn1c(N)c(N(Cc2ccccc2)C(=O)c2ccc3ccccc3c2)c(=O)[nH]c1=O	-2.5	0.8	-2.0	-0.1	-4.2%	-4.2	-1.5
CCCCN1CC(=O)N2[C@H]3c4cc(C)ccc4OC[C@@H]3[C@H](C(=O)OCC)[C@]2(C)C1=O	.	-4.4	-8.1	-1.8	.	.	3.7
COc1cccc(CN(C)CC2CCCN(CCc3ccccc3C)C2)c1 (stereo not given)	2.6	.	2.5	1.6	-1.8%	1.0	-3.6
Cc1ccc(NC(=O)N2CCCC2C(=O)NCc2ccc(Cl)cc2)cc1 (stereo not given)	-0.4	-9.7	6.3	-0.3	.	-1.5	4.6
CN1CCN(NC(=O)c2cc(S(=O)(=O)Nc3ccc(Cl)cc3)ccc2Cl)CC1	6.0	11.7	0.4	-2.3	-8.1%	1.3	0.6
CCN1CCN(C(c2cc3cccc(C)c3[nH]c2=O)c2nnnn2Cc2ccccc2)CC1 (stereo not given)	-1.4	0.7	12.2	0.4	?	-2.3	-0.9
Cc1ccc(C)c(NC(=S)N2CCN(CCO)CC2)c1	?	8.1	3.4	-4.0	4.8%	1.2	3.4
O=C(Nc1ccc(-c2nc3ccccc3o2)cc1)c1ccc(N2C(=O)C3C4C=CC(C4)C3C2=O)cc1 (stereo not given)	-7.7	-4.1	-1.4	-3.7	3.0%	-13.9	-0.7
CC12CCC(=O)C=C1CCC1C2CCC2(C)C(c3csc(N)n3)CCC12 (stereo not given)	.	.	16.9	1.1	-4.0%	.	.
O=C(CC(Cc1ccccc1)C(=O)O)Nc1cccc(C(F)(F)F)c1 (stereo not given)	?	1.6	14.3	1.2	3.5%	-7.5	1.0

Next section, overlapping the part above by 3 compounds.
SMILES	RanGTP-Imp inh	ALR inh	B2AR ag	HNF4A DNA FP	Vif TR-FRET	Calb FLC	LANA-H2B inh
O=C(Nc1ccc(-c2nc3ccccc3o2)cc1)c1ccc(N2C(=O)C3C4C=CC(C4)C3C2=O)cc1 (stereo not given)	-7.7	-4.1	-1.4	-3.7	3.0%	-13.9	-0.7
CC12CCC(=O)C=C1CCC1C2CCC2(C)C(c3csc(N)n3)CCC12 (stereo not given)	.	.	16.9	1.1	-4.0%	.	.
O=C(CC(Cc1ccccc1)C(=O)O)Nc1cccc(C(F)(F)F)c1 (stereo not given)	?	1.6	14.3	1.2	3.5%	-7.5	1.0
CCOc1ccc(C(=O)N2CCCCCC2)cc1	1.8	-1.2	-2.4	0.0	?	-8.1	-3.1
C[C@H](NC(=O)C1(c2ccccc2)CCN(C(=O)[C@H]2CSCN2C(=O)OC(C)(C)C)CC1)C(=O)O	5.4	-2.1	7.8	4.3	-4.1%	-11.2	4.8
O=C(CN(C(=O)c1csnn1)c1ccc(Cl)cc1)NCc1ccc2c(c1)OCO2	1.5	0.5	-7.0	0.7	.	3.2	-6.4
CN1CC(=O)N2C(c3cccc([N+](=O)[O-])c3)c3[nH]c4ccccc4c3C[C@H]2C1=O (stereo not given in full)	1.7	-13.2	-0.5	-0.6	-0.8%	9.6	-1.4
CC1Cc2ccccc2N1C(=O)COC(=O)c1ccc(Br)o1 (stereo not given)	4.4	-2.9	4.0	-2.6	13.2%	0.3	-0.7
CC1(C)C(=O)NCCN1C(=O)c1ccc2nc(Cc3ccccc3F)oc2c1	2.3	-0.2	0.0	3.6	.	-4.5	-7.1
Cc1nc2ccc(NC(=O)Cc3c(F)cccc3Cl)cc2s1	0.1	-2.7	-3.2	1.3	-8.3%	12.2	-1.8
Cc1noc(C)c1COc1ccc(C(=O)NCCc2ccc(F)cc2)cc1	.	.	3.9	3.6	-9.3%	.	-11.7
NC(=O)C1CCN(c2ccc(S(=O)(=O)N3CCCCC3)cn2)CC1	-4.7	0.1	2.7	0.8	21.8%	5.8	1.7
Cc1nn(-c2ccccc2)c2c1C(c1cccnc1)N1C=C(S(=O)(=O)N3CCCCC3)C=CC1=N2 (stereo not given)	-1.0	-4.5	-6.3	0.4	1.7%	7.7	1.6
COc1cccc(CNC(=O)Nc2cccs2)c1	-0.4	99.3*	-2.2	3.0	17.1%	-9.0	6.8
COc1ccc(NC(=O)COC(=O)CCCOc2ccc(Cl)cc2Cl)cc1	1.1	-4.1	-3.3	1.3	2.9%	12.3	2.2
N#Cc1ccc(/C=C/C(=O)c2ccccc2)cc1	-0.2	?	18.8	4.6	18.7%	-4.3	1.4
COc1cc(N)c(C(=O)c2nccc3cc(OC)c(OC)cc23)cc1OC	0.4	-30.1	-4.0	-1.4	7.2%	-6.5	1.8
CC(C)Nc1nc(Cl)nc(NCCOc2ccccc2)n1	3.1	7.7	-12.4	-4.2	-14.9%	-15.7	-3.3
CCOC(=O)C(NC(=O)NCc1ccccc1)(OCC)C(F)(F)F (stereo not given)	-1.7	-0.2	1.3	0.2	.	2.1	0.0
CCC(C(=O)NCc1ccco1)N(Cc1cccs1)C(=O)CNS(=O)(=O)c1ccccc1 (stereo not given)	1.8	-21.8	-3.3	-2.3	-2.0%	31.9	1.4
COc1ccc(OC(C)c2nnc(N)s2)cc1 (stereo not given)	.	-4.4	0.1	0.9	24.4%	8.8	-1.0
COc1ccc(-n2cnnc2SCCC#N)cc1	-3.1	-2.0	-6.7	-0.4	-1.3%	-1.4	-2.0
CCCCn1c(N)c(N(CCC(C)C)C(=O)COC(=O)c2ccc(CC)cc2)c(=O)[nH]c1=O	.	.	-9.1	5.0	1.5%	.	.
C=CCN1C(=O)C(CC(=O)O)S/C1=N/N=C/c1ccc(N(CC)CC)cc1 (stereo not given)	.	99.1*	20.8	-6.4	4.7%	.	.
Cc1cc(-n2c(C)cc(C(=O)COc3cc(F)ccc3[N+](=O)[O-])c2C)no1	.	.	4.5	-1.8	-6.2%	.	.
O=C(NCc1ccccc1Cl)C1CCN(S(=O)(=O)c2ccc(F)cc2)CC1	-0.1	-17.6	-1.2	-4.4	-2.4%	1.2	0.7
Oc1ccc2ccccc2c1/C=N/Nc1nnc(-c2ncc[nH]2)c2ccccc12	2.9	-2.9	10.4	15.5	18.9%	108.3*	-2.9
COc1ccc(NS(=O)(=O)c2cc3c(cc2C)N(C)CCO3)cc1	-0.2	8.3	0.1	-3.0	.	-4.8	-3.0
CC(C)n1c2ccccc2c2nnc(SCC(=O)Nc3ccccc3C(=O)O)nc21	-0.2	13.3	1.3	0.4	1.4%	9.9	-4.8
CCOC(=O)c1cc(C#N)c(=S)[nH]c1C	-0.5	19.0	-4.3	-3.3	-12.7%	0.3	0.4
CCn1c(=O)cc(SCC(=O)N2CCN(c3ccccc3OC)CC2)c2ccccc21	5.9	6.1	4.5	-2.7	6.6%	-5.0	0.9
CN(C)[C@@H]1CCC[C@@H]1OC(=O)C(c1ccccc1)c1ccccc1	3.6	-3.4	14.9	2.3	.	-2.1	6.0
Cc1cccc(CSc2cccc3cccnc23)c1	-4.0	-2.0	21.2	-2.2	-0.4%	-12.6	-3.5
CCNc1ccc(C(=O)OCC(=O)c2cc(C)n(Cc3ccc4c(c3)OCO4)c2C)cc1[N+](=O)[O-]	3.0	-23.6	-3.7	1.2	-0.8%	10.4	5.9
